Screening results as filed in PubChem.
Measles inh: inhibitors of measles virus growth in cells, primary screen, measles RdRp inhibitor project, cell-based, single point, HTS | infected Vero cells, GFP fluorescence, 64 h; stronger effect = lower value | z-score (concentration not given with the values) | 0.1% of 33,000 active;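 active = z-score under -3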;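 also: score is relative to mean and SD of the compound wells of a plate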
* = called active by the depositor.

Compound,Measles inh
COc1ccc(NC(=O)C2CC(=O)N(C)C(=Nc3ccc(Cl)c(C(F)(F)F)c3)S2)cc1 (centres undefined),-0.75
Cc1c(C(=O)Nc2ccc3c(c2)OCO3)sc2ncnc(N3CCCCC3C)c12 (centres undefined),0.51
CCCS(=O)(=O)N1CCC(C(=O)NC2CCCCC2C)CC1 (centres undefined),-0.34
Cn1c(=O)oc2cc(Cl)c(C(=O)c3cc4c(cc3Cl)oc(=O)n4C)cc21,-0.71
O=C(CSc1nc2c(c(=O)n1-c1ccc(Cl)cc1)SCC2)NC1CCCCC1,0.6
CCCCc1nc2sc3c(c2c(=O)[nH]1)CC(C)(C)OC3,0.92
CC1=C(C(=O)Nc2ccc(C)cn2)C(c2ccsc2)C2=C(CCCC2=O)N1 (centres undefined),-1.9
CCOC(=O)c1ccc(CN(Cc2ccc(F)cc2)S(=O)(=O)c2c(C)cc(C)cc2C)cc1,0.21
COc1cc2c(cc1OC)C(C(=O)N1CCN(Cc3ccccc3)CC1)C1c3ccccc3CCN1C2=O (centres undefined),0.58
CCn1c(=N)n(CC(=O)c2ccc(C)cc2)c2ccccc21,-0.42
O=C(COC(=O)c1c2c(nc3ccccc13)CCC2)c1ccc(-c2ccccc2)cc1,-0.31
COc1ccc(C2C(C(=O)Nc3ccccc3)=C(C)N=C3SCC(=O)N32)cc1 (centres undefined),0.26

The last 3 compounds of the part before are carried over, then new ones follow:
Compound,Measles inh
CCn1c(=N)n(CC(=O)c2ccc(C)cc2)c2ccccc21,-0.42
O=C(COC(=O)c1c2c(nc3ccccc13)CCC2)c1ccc(-c2ccccc2)cc1,-0.31
COc1ccc(C2C(C(=O)Nc3ccccc3)=C(C)N=C3SCC(=O)N32)cc1 (centres undefined),0.26
COc1ccc(C2CC(C(F)(F)F)n3nc(C(=O)N4CCC(C)CC4)c(Cl)c3N2)cc1OC (centres undefined),0.43
N#Cc1cc2c(nc1SCC(=O)N1CCCCC1)CCCC2,-0.03
CCSc1nc(N)c2c3c(sc2n1)CCCC3,-1
Cc1sc2c(c1C)c(=O)n(-c1ccc(F)cc1)c(=O)n2Cc1cc(=O)n2ccccc2n1,-0.28
CCOC(=O)c1ccc(NC(=O)CSc2n[nH]c(N)n2)cc1,1
COc1ccccc1OCC(=O)NC1CCS(=O)(=O)C1 (centres undefined),-0.52
COC(=O)c1c[nH]n2c(NC3CCCC3)c(-c3cccc(C)c3)nc12,0.16
Cc1nc(CSc2nnc3scc(-c4ccc(Cl)cc4)n23)cs1,-1.1
CCCCc1ccc(NC(=O)CCOc2ccccc2)cc1,1.6
O=C1NC(c2ccccc2Cl)c2c(-c3ccccc3)n[nH]c21 (centres undefined),-1.4
O=C(NCC1COc2ccccc2O1)c1cnn2c(C(F)(F)F)cc(-c3ccccc3)nc12 (centres undefined),0.28
COc1ccc(NC(=O)C2CCN(C(=O)c3ccc(OC)cc3)CC2)cc1,0.75

Some values from the results shown.
Measles inh with CCCCc1ccc(NC(=O)CCOc2ccccc2)cc1 is entered as 1.6
Measles inh with O=C(NCC1COc2ccccc2O1)c1cnn2c(C(F)(F)F)cc(-c3ccccc3)nc12 (centres undefined) is entered as 0.28
Measles inh with Cc1sc2c(c1C)c(=O)n(-c1ccc(F)cc1)c(=O)n2Cc1cc(=O)n2ccccc2n1 is entered as -0.28
Measles inh with COC(=O)c1c[nH]n2c(NC3CCCC3)c(-c3cccc(C)c3)nc12 is entered as 0.16
Measles inh with O=C1NC(c2ccccc2Cl)c2c(-c3ccccc3)n[nH]c21 (centres undefined) is entered as -1.4
Measles inh with CCSc1nc(N)c2c3c(sc2n1)CCCC3 is entered as -1

Going on with the list:
Compound,Measles inh
COCCn1c(N(C)Cc2ccccc2)nc2c1c(=O)[nH]c(=O)n2C,0.25
CCOC(=O)c1sc2ccccc2c1NC(=O)c1ccc2c(c1)OCCO2,-0.72
COc1cc2nc(CCc3ccccc3)oc(=O)c2cc1OC,0.12
S=c1[nH]c(-c2ccc(Cl)cc2)cn1-c1cccc(Cl)c1,-0.55
CCN1C(=O)C(CC(=O)Nc2ccccc2C)SC1=Nc1ccccc1 (centres undefined),-0.05
COC(=O)c1ccc2c(=O)n(-c3ccc(OC)cc3)c(=S)[nH]c2c1,0.88
C=CCOC(=O)C1=C(C)N(C)C(=O)NC1c1cn(-c2ccccc2)nc1-c1ccccc1 (centres undefined),-0.55
CC(C)NS(=O)(=O)c1cccc2nonc12,0.85
Cc1ccc2nc(-c3ccccc3)c(Nc3ccccc3C)n2c1,-1
O=c1c2c(nc3n1CCCS3)-c1ccccc1CC21CCCCC1,0.3
COc1ccccc1CNC(=O)CN(c1cccc([N+](=O)[O-])c1)S(=O)(=O)c1ccccc1,0.52
CCC(=O)N1N=C(c2c(-c3ccccc3)c3cc(Br)ccc3[nH]c2=O)CC1c1cccc([N+](=O)[O-])c1 (centres undefined),-1.3

Other entries
Compound,Measles inh
Cc1ccc(CNS(=O)(=O)c2ccc(F)c(C(=O)Nc3ccccc3C(F)(F)F)c2)cc1,0.25
Cc1cc(C)n(C(=O)c2nn(C)cc2I)n1,0.39
Cc1nc2sc(C(c3ccco3)N3CCC(C(N)=O)CC3)c(O)n2n1 (centres undefined),-0.78
COc1ccc(CC(=O)Nc2c3c(nn2-c2cccc(C)c2)CSC3)cc1,-0.53
CCOC(=O)c1cnc2c(C(F)(F)F)cccc2c1NCCCO,-0.33
Cc1cccc(-c2nc(NCCCN3CCOCC3)c3ccccc3n2)c1,0.66
O=C(C1CCCN(S(=O)(=O)c2cccc3nsnc23)C1)N1CCN(C2CCCCC2)CC1 (centres undefined),-0.23
Cc1ccc(NC(=O)CSc2nc3c(c(=O)n2-c2ccc(F)cc2)SCC3)c(C)c1,0.68
CC(=O)c1ccc(N2CCN(C(=O)CCC3Nc4c5ccccc5nc(=S)n4C3=O)CC2)cc1 (centres undefined),-0.26
CC(=O)c1ccc2c(c1)OCCO2,1.3
Nc1ncnc(Oc2ccc(F)cc2)c1[N+](=O)[O-],-1.6
N#Cc1ccc(-c2cccs2)nc1SCC(=O)c1ccc(Cl)cc1,2.6

Remaining list, next part
Compound,Measles inh
COc1ccc2nc3sc(C(=O)N4CCN(C5CCCCC5)CC4)cc3cc2c1,-1.2
O=C(CN(C1CCCCC1)S(=O)(=O)c1ccc(Br)cc1)N1CCc2ccccc2C1,-0.12
COc1ccc(-c2cc(C(F)(F)F)n3ncc(C(=O)Nc4ccc(C)c(Cl)c4)c3n2)cc1OC,-0.38
CC1CC(=O)N(c2ccc(NCc3ccc(Cl)cc3)c([N+](=O)[O-])c2)C1=O (centres undefined),-0.27
CCOCc1cn(CC(=O)c2ccc([N+](=O)[O-])cc2)c(C)nc1=N,-0.8
CCCC(=O)NC(c1ccc(OC)c(OC)c1)c1c(O)ccc2ccccc12 (centres undefined),-0.12
COc1ccc2nc(NS(=O)(=O)c3ccc(NC(C)=O)cc3)sc2c1,-0.76
COc1ccc(NC(=O)Cn2c3ccccc3c(=O)c3cc(C)ccc32)cc1OC,-0.73
CCc1ccc(NC(=O)c2noc3c2CC(C(C)(C)C)CC3)cc1 (centres undefined),-0.82
CCCCNC(=O)c1c[nH]c2ccc(S(=O)(=O)Nc3cccc(SC)c3)cc2c1=O,-0.9
COc1ccccc1-n1c(-c2nn(C)c(C)c2Cl)n[nH]c1=S,-0.68
CN1C(=O)c2ccccc2C(C(=O)NCCCN2CCCCCC2)C1c1cccs1 (centres undefined),-0.65

(more compounds)
Compound,Measles inh
COc1ccc(OCCCC(=O)Nc2nnc(C)s2)cc1,-0.5
Cc1ccc(N2COc3ccc4cc(Br)ccc4c3C2)cc1C,-0.32
O=C(NCCc1ccccc1)C1CCC(Cn2c(=O)[nH]c3ccccc3c2=O)CC1 (centres undefined),0.45
O=C(CSC1=Nc2ccccc2C2=NC(Cc3ccccc3)C(=O)N12)NCc1ccccc1 (centres undefined),-0.22
O=C(NCC1CCCO1)c1cc2nc(-c3ccc([N+](=O)[O-])cc3)cc(C(F)(F)F)n2n1 (centres undefined),0.03
CC(Sc1nc2c(c(=O)n1-c1ccc(Br)cc1)SCC2)c1ccccc1 (centres undefined),0.52
O=C(CSc1nc2ccccc2[nH]1)N1CCc2ccccc2C1,-1
CCC(=O)Nc1cccc(NC(=O)c2ccc(Br)cc2)c1,0.16
O=C(OCCNc1nc(-c2ccccc2)nc2ccccc12)c1cccs1,-0.06
CCOc1ccccc1NC(=O)C(CC)Sc1nc2ccsc2c(=O)n1C1CC1 (centres undefined),0.2
CC(=O)N1CCc2cc(S(=O)(=O)NCc3cccs3)ccc21,-1.2
Cc1ccccc1OCCNC(=O)c1nonc1N,-0.52

Next part:
Compound,Measles inh
O=[N+]([O-])c1cc(C(F)(F)F)ccc1Sc1ccccc1,-0.78
C=CCNC(=O)c1ccc2c(=O)n(Cc3ccc4c(c3)OCO4)c(=S)[nH]c2c1,-0.31
O=C(O)c1ccc(NS(=O)(=O)c2ccc3c(c2)C2C=CCC2C(c2ccc([N+](=O)[O-])cc2)N3)cc1 (centres undefined),-0.63
CCN(CC)c1nc(C)nc2sc(C(=O)NCCCOC)c(C)c12,0.22
O=C(Nc1cc(C(F)(F)F)ccc1Oc1ccc(F)cc1)c1ccco1,0.72
CCCCN1C(=O)C(O)(CC(=O)c2ccncc2)c2cc(Br)ccc21 (centres undefined),0.03
COc1cc(OC)c(NC(=O)Cn2cnc3sc(C)c(S(=O)(=O)N4CCCCC4)c3c2=O)cc1Cl,-0.2
CC1CCN(C(=O)c2ccc(S(=O)(=O)Cc3ccccc3F)c([N+](=O)[O-])c2)CC1,0.14
CCc1cc2c(=O)c(Oc3ccccc3)c(C(F)(F)F)oc2cc1OC,0.41
COc1cc(C(=O)Nc2cccc(O)c2)c2ccccc2n1,-0.66
Cc1sc2c(c1C)c(=O)n(-c1ccc(Cl)cc1)c(=O)n2CC(=O)N1CCCC1,0.65
O=C(CCc1nc(-c2ccccc2F)no1)NCc1ccccn1,-2.2

New compounds follow:
Compound,Measles inh
Oc1ccc(Cl)cc1N=Cc1cccc(I)c1O,-0.72
O=C(CCN1C(=O)c2ccccc2C1=O)Nc1cccc(O)c1,0.44
O=C(c1cnn2c1NC(c1ccc(Br)cc1)CC2C(F)(F)F)N1CCN(C(c2ccccc2)c2ccccc2)CC1 (centres undefined),-0.49
CCn1c(=NC(=O)c2ccc(S(=O)(=O)N3CCCC(C)C3)cc2)sc2cc(C)ccc21 (centres undefined),-0.29
Cc1cccc(NC(=O)Cn2c3ccccc3c(=O)c3ccccc32)c1,-0.4
Cc1ccc(OCC(=O)Nc2cc(-c3nc4ccccc4[nH]3)ccc2C)cc1C,2
CC1=C(OC(=O)c2ccc(Br)cc2)C(C)(C)C(c2ccc(Cl)cc2)OC1=O (centres undefined),0.09
COc1cc(C(=O)N2CCN(C(=O)COc3cccc(C)c3)CC2)cc(OC)c1OC,-0.91
O=C(Nc1ccc2nc(SCC(=O)N3CCOCC3)sc2c1)c1ccccc1,0.26
COc1cc(OC)cc(C(=O)N2CCN(S(=O)(=O)c3ccc(Cl)cc3)CC2)c1,-2.3
O=C(NC1CCCC1)c1ccc2c(c1)N(Cc1ccccc1)C(=O)c1ccccc1S2,0.66
O=C(Nc1nc(-c2ccccc2)cs1)c1cccs1,-1.2

Carrying on:
Compound,Measles inh
COc1ccc(OC)c(C2NC(C(=O)O)C3C(=O)N(c4cccc(C(=O)O)c4)C(=O)C23)c1 (centres undefined),0.86
Cc1ccc(NC(=O)c2ccc(F)c(S(=O)(=O)N(C)Cc3ccccc3)c2)cc1F,2.6
COc1ccc(C2/C(=C(\O)c3ccc(Cl)cc3)C(=O)C(=O)N2CCN2CCOCC2)cc1 (centres undefined),1.3
NC(=O)C1CCN(C(=O)c2ccc3c(=O)n(Cc4ccco4)c(SCc4ccccc4Cl)nc3c2)CC1,0.01
O=C1C2C3c4ccccc4C(c4ccccc43)C2C(=O)N1c1ccccc1Cl (centres undefined),-0.51
O=C1C(=O)N(Cc2cccnc2)C(c2ccc(Cl)cc2)/C1=C(\O)c1ccc(F)cc1 (centres undefined),-0.62
CCOC(=O)c1sc2ncnc(NCc3ccccn3)c2c1C,0.47
Cc1c(C(=O)Nc2ccccc2C(F)(F)F)sc2ncn(CC(=O)N3CCCCC3)c(=O)c12,-0.58
COc1ccc(CNC(=O)CCCn2c(=O)[nH]c3ccc(Br)cc3c2=O)cc1,-0.96
COc1ccccc1NC(=O)c1ccc(SCC(=O)O)c([N+](=O)[O-])c1,0.31
O=C(Cn1c(=S)[nH]c2ncccc2c1=O)NCc1ccccc1Cl,-1.2
Cc1cccc(NC(=O)c2cc3n(n2)C(C(F)(F)F)CC(c2ccc4c(c2)OCO4)N3)c1 (centres undefined),1.3

Other entries.
Compound,Measles inh
Fc1cccc(-c2nc3cc(N=Cc4ccc(Cl)cc4)ccc3o2)c1,-1.4
O=C1C2C(c3ccccc3C(F)(F)F)OC3(C(=O)c4ccccc4C3=O)C2C(=O)N1c1ccc(Cl)cc1 (centres undefined),-0.91
CCOc1cc(C2C(C(=O)OC(C)C)=C(C)NC3=C2C(=O)CC(c2cccs2)C3)ccc1O (centres undefined),-0.14
Cc1ccc(-c2ccc(=O)n(CC(=O)NCc3ccco3)n2)cc1,1.2
COC(=O)c1ccc(N=Cc2cc(C)n(-c3ccc(I)cc3)c2C)cc1,-0.08
COc1ccc(N2C(=O)c3ccc(Oc4ccc([N+](=O)[O-])cc4)cc3C2=O)c([N+](=O)[O-])c1,1.1
O=[N+]([O-])c1cccc(S(=O)(=O)Nc2ccccc2Br)c1,-0.72
COc1ccc([N+](=O)[O-])cc1NC(=O)c1oc(=O)c2ccccc2c1-c1ccccc1,0.44
COc1ccc(C2CC(=O)C=C(NCC3CCCO3)C2)cc1 (centres undefined),0.16
COc1ccc(OCC(O)Cn2c(N3CCOCC3)nc3c2c(=O)n(C)c(=O)n3C)cc1 (centres undefined),0.65
Cc1cccc(C2(c3cccc(C)c3)CC2C(=O)NCc2ccccc2)c1 (centres undefined),-1

A portion of the library. The share of hits here may be higher or lower than overall.
